Sfp PPTase inh – inhibitors of Bacillus subtilis Sfp phosphopantetheinyl transferase; Q9F4F7; Biochemical Sfp PPTase activity, qHTS; Potency, µM, for inactives: max response, negative = inhibition, actives largely listed as inhibitors; 310,000 tested, 3.5% active; active means well fitted inhibition curve with a large enough effect; inconclusive means small, poorly fitted or top-dose-only effect, or another doubt; inactive means no such curve, though single readings can be large or run the other way;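 further: the enzyme is Sfp with the accession as filed and its product quenches rhodamine fluorescence; potency means the concentration at half of the fitted maximal effect; 0% = enzyme reaction without inhibitor and -100% = no enzyme wells; top concentration of the series not given in the record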
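With Hepes-Na pH 7.6 buffer containing 10 mM MgCl2, Sfp (15 nM) modified BHQ-2-YbbR (12.5 uM) using rhodamine-CoA (5 uM). Two reads 30 minutes apart at 525/598 nm yielded each well's rate.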
Menin MLL FP FL – inhibitors of human menin-MLL interaction, wild-type MLL peptide. Fluorescence polarization, fluorescein-MLL peptide displacement from menin. FP activity change, % at 61.4 µM. 290,000 tested, under 10 active. AID 1766; inconclusive = falling polarisation curve, or a change in total fluorescence; inactive = total fluorescence flat and polarisation flat or rising; no compound was filed as active; the % refers to the polarisation; negative = inhibition;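 further: % of control where 0% means no effect; inhibitors lower the polarisation; unlabelled MLL peptide was the positive control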
Starred values were filed as active, the others as inactive; ? = inconclusive; & = joins results of further samples; [ ] = dose if it differs, or a comment. The list is partial, so the mix of outcomes need not match the whole.

Sfp PPTase inh | Menin MLL FP FL | SMILES
0%&10% | -4.1&1.2 | C=C1C2CC[C@@]3(C)C(c4ccoc4)OC(=O)C[C@@]13OC1CC(O)C(C)(C)C(CC(=O)OC)[C@@]12C (stereo not given in full)
56µM* | 10 | Cc1sc2nc(-c3cccs3)nc(N3CCCN(C)CC3)c2c1C
-20% | 1.6 | CCOCCCNC(=S)NCCCNc1nc2ccc(C)cc2cc1C#N
-7% | 21 | Cc1ccccc1Nc1nc(-c2sc(NC(=O)c3cccc(Cl)c3)nc2C)cs1
9% | -3.4 | NCCC[C@@H](CC(=O)N[C@@H]1CCCC[C@H]1C(=O)N[C@H](CC(=O)N[C@@H](CCC(=O)O)CC(=O)O)Cc1ccccc1)NC(=O)C[C@H](CO)NC(=O)[C@@H]1CNCC[C@H]1N
0% | -19 | CNC(=O)[C@H]1O[C@H](n2cnc3c(NCc4cccc(I)c4)nc(Cl)nc32)[C@@H](O)[C@@H]1O
-9% | -8.0 | CCOC(=O)CNS(=O)(=O)c1ccc(F)cc1Br
27% | ? | COc1ccc2cc(C#N)c(=O)oc2c1
26% | 1.3[11.7 µM] | CC1Cc2c(COc3ccccc3)nc3c(c2CO1)CN(CCOc1ccccc1)CC3 (stereo not given)
-5% | -8.1 | CC(C)C1=CC2=CC[C@@H]3[C@@](C)(C(=O)O)CCC[C@]3(C)C2CC1 (stereo not given in full)
9% | 4.8 | CC(=O)c1sc(-c2c(C)nc3sccn23)nc1C1CCCC1
-9% | 0.5 | O=C(O)CCCC/C=C(\c1ccccc1)c1cccnc1
18%&14% | 0.3&2.1 | CCCCCCN(C(=O)CCCCCN1C(=O)NC(c2ccc(-c3ccccc3)cc2)C(C(=O)OCc2ccccc2)=C1C)C(C(=O)NCCCC)c1cccc(C(=O)OC)c1 (stereo not given)
3% | 1.4 | COc1ccc(-c2nnc3n2N=C(c2ccc(OC)c(OC)c2)CS3)c(OC)c1
15% | 0.1 | Oc1ccc(N=Nc2ccc3c(c2)OCO3)c2ccccc12
? | -2.6[11.7 µM] | CCCCC#CC1C=CC(OC(C)=O)C(COC(C)=O)O1 (stereo not given)
4% | ? | CC(=O)N[C@H]1C(O[C@@H]2O[C@H](C[C@@H](O)[C@H]3O[C@@H](N4CCC(=O)NC4=O)[C@H](O)[C@@H]3O)[C@H](O)[C@H](O)[C@H]2NC(=O)/C=C/CCCCCCCCCCC(C)C)OC(CO)[C@@H](O)[C@@H]1O (stereo not given in full)
5%&7% | ? | Cc1cc(C)cc(C(=O)N(C)[C@H](Cc2ccc(-c3ccccc3)cc2)C(=O)N[C@@H](Cc2c[nH]c3ccccc23)C(=O)O)c1
-49% | ? | C=C1c2c(Cl)ccc(O)c2C(O)=C2C(=O)[C@]3(O)C(O)=C(C(N)=O)C(=O)C(N(C)C)C3C(O)C12 (stereo not given in full)
9% | -1.1 | COc1ccc(C2/C=C\CN(C(=O)CC(C)(C)C)C(C)C(=O)N2Cc2ccc(F)cc2)cc1 (stereo not given)
-5% | 15[94.6 µM] | C[C@H]1C(c2ccccc2)=NN(c2ccccc2)[C@@H]1CO
-4% | -6.4 | COC(=O)C(C)c1ccc(C(=O)c2cccs2)cc1 (stereo not given)
-7% | -0.9 | NC(C(=O)O)c1nn[nH]n1 (stereo not given)
-12% | -9.6 | CCCOC(=O)N1CCN(/[N+]([O-])=N/Oc2ccc([N+](=O)[O-])cc2[N+](=O)[O-])CC1
-17% | ? | N[C@H](C(=O)O)[C@@H]1C[C@@H]1C(=O)O

Next section (five carried over from the part before).
Sfp PPTase inh | Menin MLL FP FL | SMILES
-5% | 15[94.6 µM] | C[C@H]1C(c2ccccc2)=NN(c2ccccc2)[C@@H]1CO
-4% | -6.4 | COC(=O)C(C)c1ccc(C(=O)c2cccs2)cc1 (stereo not given)
-7% | -0.9 | NC(C(=O)O)c1nn[nH]n1 (stereo not given)
-12% | -9.6 | CCCOC(=O)N1CCN(/[N+]([O-])=N/Oc2ccc([N+](=O)[O-])cc2[N+](=O)[O-])CC1
-17% | ? | N[C@H](C(=O)O)[C@@H]1C[C@@H]1C(=O)O
-12% | 0.6[94.6 µM] | COc1ccc(OC)c(-c2ccc(C(=O)O)o2)c1
-17% | -2.9 | COc1ccc2c(c1)O[C@@H](c1ccc3c(c1)OCO3)[C@H](OC(=O)NCCOc1ccccc1)C2=O
-9% | 1.9 | CCCCC(CC)Cn1c2nc3ccccc3nc2c2c(=N)oc(C)nc21 (stereo not given)
? | ? | COc1ccccc1CNCCCCCCNCCCCCCCCNCCCCCCNCc1ccccc1OC
15% | 3.2[11.7 µM] | CCOC(=O)OCC1OC(c2ccccc2)C=CC1Oc1cccc(N(C)C)c1 (stereo not given)
8% | -5.2[11.7 µM] | CO[C@@H]1COC(=O)CC=C[C@@H](C)[C@@H]2C=C[C@H](O)[C@@H](COC(=O)[C@H](C)NC(=O)CC=C[C@H]1C)O2
3% | 1.2 | NCc1ccc(-c2nc3ccccc3o2)cc1
13µM* | 1.7 | C/C(=N\NC(=O)c1ccccn1)c1ccc(C(=O)O)s1
8% | 2.2 | COc1ccc(Nc2ccc3nnc(-c4ccc(Br)cc4)n3n2)cc1
2% | 5.3 | COc1ccc(-c2ccc(OC)c(C3C4C=CCC(C)C4C(=O)N3Cc3ccccc3)c2)cc1 (stereo not given)
15% | -1.2 | Cc1ccc2nc(-c3ccccn3)cc(C(=O)NC3CCN(C)CC3)c2c1
56µM* | -4.3 | CO/N=C(/C(=O)N[C@@H]1C(=O)N2C(C(=O)O)=C(CSC(=O)c3ccco3)CSC12)c1csc(N)n1 (stereo not given in full)
10% | -0.5[11.7 µM] | C/C(CCN1CCc2nc(-c3ccccc3)c(-c3ccccc3)cc2C1)=N\OC[C@@H](O)COCc1ccco1
10% | 0.8 | COC(=O)C1=C(C#N)NC(C)=C(C(=O)OC(C)C)C1c1cccc([N+](=O)[O-])c1 (stereo not given)
14% | 6.6 | Nc1ncnc2c1nc(Br)n2[C@H]1O[C@H]2COP(=O)(O)O[C@H]2[C@@H]1O
-11% | 2.1 | Cn1c(SCC(=O)NCc2ccccc2)nc2c([nH]c3ccccc32)c1=O
? | ? | COc1ccc(NC(=S)N(C(C)C)C2CCN(C(C)C)CC2)cc1Cl
-10% | -2.1 | CSc1ccc(/C=C2/C(C)=C(CC(=O)O)c3cc(F)ccc32)cc1
14% | 2.5 | O=C(NC[C@H](O)c1ccccc1)c1ccccc1
11% | -0.8 | COc1ccc(-c2nnc3sc(-c4ccccn4)nn23)cc1
9% | 1.5[24.8 µM] | CC(=O)Nc1c(I)c(C(=O)N[C@H]2[C@@H](O)[C@H](O)[C@H](CO)O[C@@H]2O)c(I)c(N(C)C(C)=O)c1I
-17% | 28 | COc1cc(/C=C2/SC(=S)N(CC(=O)O)C2=O)ccc1OCC(=O)Nc1ccc(C)c(C)c1
10% | ? | Cc1ccc(N(CCC(=O)Nc2nnc(C3CC3)s2)S(=O)(=O)c2ccccc2)cc1
-7% | -1.3[11.7 µM] | C=CCOC(=O)C(C(C)=O)C(NC(=O)OC)c1ccc(F)cc1 (stereo not given)
-3% | -1.1 | Cc1noc(C)c1-c1ccc2ncnc(NCc3ccc(-c4ccccc4)cc3)c2c1

Remaining list, next part:
Sfp PPTase inh | Menin MLL FP FL | SMILES
10% | 1.4 | O=C1Nc2ccccc2C12OCCS2 (stereo not given)
6% | -1.6[11.7 µM] | C=CCC1C=CC(OC(=O)OCC)C(COC(=O)OCC)O1 (stereo not given)
6% | 3.0 | COc1cc(OC)c([C@@H]2O[C@H](CO)[C@@H](O)[C@H](O)[C@H]2O)c(OC)c1
-8% | -0.4 | O=C(Cn1c(COc2ccccc2)nc2ccccc21)Nc1cc(Cl)c(Cl)cc1Cl
28% | -0.6[24.8 µM] | CC(=O)N(C[C@@H](C)C(=O)O)c1c(I)cc(I)c(N)c1I
16% | -4.7 | CCn1c(=N)c(S(=O)(=O)c2ccc(C)cc2)cc2c(=O)n3ccccc3nc21
-40% | 5.9 | COc1cc(C/C=C/c2ccccc2)c(OC)cc1O
3% | 4.6 | COc1ccc(-c2nsc3c(SCC(=O)Nc4cc(C)ccc4C)ncnc23)cc1
1% | -0.5 | CCOC(=O)c1c(C)[nH]c(C(=O)Nc2ccc3c(c2)OCO3)c1C
8% | 3.3 | CCN1CCN(c2ncnc3c2oc2nc(C(C)C)c4c(c23)CCC4)CC1
2% | 2.3 | C=CCn1cnc2c(c1=O)c1nc3ccccc3nc1n2-c1ccc(C)cc1
8% | 0.6 | CC1(C)O[C@H]2C[C@@H]3[C@H]4CCC5=CC(=O)C=C[C@]5(C)[C@@]4(F)[C@@H](O)C[C@]3(C)[C@]2(C(=O)CO)O1
5% | 2.9 | Cc1nc(NC(=O)c2ccc(Cl)cc2)sc1-c1csc(Nc2cccc(F)c2)n1
-24% | 2.2 | C=CCOC(=O)NC(CC(=Nc1ccc(OC)cc1)C(=O)OC)c1ccccc1 (stereo not given)
6% | 2.0 | Cc1ccccc1NC(=O)c1c(O)c2cccc3c2n(c1=O)CCC3
22µM* | -1.2 | O=C(O)/C(=C/c1ccco1)c1ccccc1
-9% | 1.0 | CCn1c(SCC(=O)N/N=C/C=C/c2ccccc2[N+](=O)[O-])nnc1-c1ccc(Cl)cc1
14% | -1.8 | C[C@@]1(C(NC(=O)c2cccs2)c2ccc(-c3ccccc3)cc2)C[C@H]1C1CCCCC1 (stereo not given in full)
-6% | 0.6[11.7 µM] | C[C@H]1COC(=O)[C@H]2CCCN2C(=O)[C@@H](C)COC(=O)[C@H](Cc2ccccc2)NC1=O
0%&-3% | -9.5 | COC(=O)N1C(C)=Cc2ccccc2C1C/C(C)=C/C(C)=O (stereo not given)
7% | 3.5 | CSc1nnc2n(Cc3ccccc3)c(=O)c3c4c(sc3n12)COC(C(C)C)C4 (stereo not given)
19% | 7.7 | Cc1ccc(N2C(=O)c3cccc4c(C(=O)O)ccc(c34)C2=O)cc1
-10% | 0.4[94.6 µM] | COc1cccc2c1OC(=O)CC2c1ccc(C)cc1 (stereo not given)
-8% | 3.2 | CCc1nc(SCC#N)c(C#N)cc1C
9% | 8.9 | COc1cccc(-c2nnc3sc(-c4ccc(C)cc4)nn23)c1

Next section.
Sfp PPTase inh | Menin MLL FP FL | SMILES
-19%&13% | 0.2&-1.6 | COC(=O)c1csc(C(=O)c2c[nH]c3ccccc23)n1
-40% | 0.4 | COc1ccc(/C=C/C(=O)c2cc(O)ccc2O)cc1
-3% | 12 | CCC(C)n1c(-c2ccco2)nc2nc3ccccc3nc21 (stereo not given)
23% | 1.7 | O=C(Nc1nc2ccc([N+](=O)[O-])cc2s1)c1ccco1
4% | -13 | CC1C(=O)OC2C(O)C34C5CC(C(C)(C)C)C36C(OC(=O)C6O)OC4(C(=O)O5)C12O (stereo not given)
26%&9% | -1.6&-4.2 | Cc1c(C)c2c(c(C)c1O)CCC(C)(CCCC(C)CCCC(C)CCCC(C)C)O2 (stereo not given)
-8% | 2.2 | O=c1[nH]c2cc(Cl)c(O)cc2o1
-22% | 6.7 | O=C1NC(=S)N/C1=C/c1ccc(-c2c(Br)cc([N+](=O)[O-])cc2Br)o1
-10% | 4.8 | COCc1cc(C)nc(OCC(=O)N/N=C/c2ccc(-c3cccc([N+](=O)[O-])c3)o2)c1C#N
7% | -13 | Cc1ccc2[nH]c3c(c2c1)CN(C(=O)CN1CCN(C(=O)c2ccco2)CC1)CC3
-5% | 1.0[24.8 µM] | C[C@H](NCCC(c1ccccc1)c1ccccc1)c1ccccc1
7% | 5.2[11.7 µM] | COc1cc2c(cc1OC)C1O[C@](c3ccsc3)(C2)Oc2cc(C)n(Cc3ccccc3)c(=O)c21
-2% | ? | CCc1c2c(nc3ccc(O)cc13)-c1cc3c(c(=O)n1C2)COC(=O)[C@]3(O)CC
-2% | 6.4 | OCCCc1ccccc1
27% | 1.6[11.7 µM] | COc1ccc(C#CC2C=CC(Oc3cc(C)cc(C)c3)C(CO)O2)cc1 (stereo not given)
-15% | 0.2 | COC(=O)[C@H](COC(C)(C)C)NC(=O)O[C@@H]1Cc2cc(OC)ccc2O[C@H]1c1cccc(OC)c1
1% | -0.4 | CN1CCc2cc3c(cc2C(=O)Cc2ccc4c(c2C1)OCO4)OCO3
? | -0.8 | Cc1ccc(CSCC(N)C(=O)O)cc1 (stereo not given)
29% | 8.0 | COC(=O)[C@@]1(Cc2ccc(F)cc2)[C@H]2c3cc(C(=O)N4CCCC4)n(Cc4cccc5ccccc45)c3C[C@H]2CN1C(=O)c1ccccc1
-19% | 0.0 | COc1ccccc1-c1csc(-n2ncc(C#N)c2N)n1

Of the compounds above, 6 have a cyano group:
Sfp PPTase inh | Menin MLL FP FL | SMILES
-20% | 1.6 | CCOCCCNC(=S)NCCCNc1nc2ccc(C)cc2cc1C#N
27% | ? | COc1ccc2cc(C#N)c(=O)oc2c1
10% | 0.8 | COC(=O)C1=C(C#N)NC(C)=C(C(=O)OC(C)C)C1c1cccc([N+](=O)[O-])c1 (stereo not given)
-8% | 3.2 | CCc1nc(SCC#N)c(C#N)cc1C
-10% | 4.8 | COCc1cc(C)nc(OCC(=O)N/N=C/c2ccc(-c3cccc([N+](=O)[O-])c3)o2)c1C#N
-19% | 0.0 | COc1ccccc1-c1csc(-n2ncc(C#N)c2N)n1

High-throughput results (PubChem)
